Screening results: PubChem, National Center for Advancing Translational Sciences (NCATS)
Six1-Eya2 inh: inhibitors of human Six1/Eya2 interaction; activity change, % (concentration not given with the values); AlphaScreen GST-Six1/His-Eya2 binding, biochemical; hits give low values; control for the full effect not named in the record; 0.56% of 360,000 active; in the data active = activity change below about -65%; inconclusive = about -30% to -65%; inactive = above about -30%; note: % is set by controls: 0 for no effect and ±100 for the full control effect
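Compounds are tested against tagged Six1 and Eya2 proteins bridged by glutathione donor and nickel acceptor beads; after a one-hour incubation at 37 °C without light, AlphaScreen emission is recorded.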
TRPV1 PAM: enhances activation of the human vanilloid receptor TRPV1; AID 540277; Q8NER1; potentiation, % at 8.33 µM; TRPV1-expressing cells, Fluo-8 calcium influx, capsaicin EC20 potentiation; host cell line not named in the record; control for the full effect not named in the record; 0.02% of 320,000 active; active means potentiation above 80%; inconclusive means 30% to 80%; inactive means below 30%; note: 0% is about no effect
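Cells expressing TRPV1 were dye-loaded with Fluo-8 and read kinetically: 10 s baseline, 3 min after compound (agonist portion), then 2 min after EC20 capsaicin (allosteric enhancer portion). Calcium-bound dye fluorescence at 480/520 nm.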
PINK1 expr mod: changes PINK1 expression | PINK1 immunofluorescence, high-content cytometry, 24 h | Potency, µM (doses to about 76.6 µM), without a hit: at the top dose activation (PINK1 increase), most hits filed as activators | 0.2% of 410,000 active | AID 624263; active = well fitted activation curve with a large enough effect; inconclusive = small, poorly fitted or top-dose-only effect; inactive = flat fitted curve, though single readings scatter; cell line not stated here;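 note: potency is the fitted concentration of half-maximal effect; % of control where 0% means no effect; nearly all actives have a fitted effect of over 65% in size; a mitochondrial uncoupler was the plate control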
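PINK1 protein, normally rapidly degraded, was detected by immunofluorescence after 24 hour compound treatment of a stable cell line. Titration data (5 concentrations) came from laser-scanning cytometry, with CCCP-treated wells as controls.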
CtBP-E1A inh: CtBP/E1A binding inhibition. 0.49% of 340,000 active. AlphaScreen GST-E1A/His-CtBP binding, 1536-well; hits give low values; control for the full effect not named in the record. AID 651724. activity change, % (concentration not given with the values); in the data active means activity change below about -65%; inconclusive means about -30% to -65%; inactive means above about -30%; note: % is set by controls: 0 for no effect and ±100 for the full control effect
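Steps: dispense buffer (Tris pH 8.0, NaCl 300 mM, TCEP 1 mM, BSA, Tween 20); add 5X protein mix (GST-E1A, His-CtBP, 125 nM each); pin 23 nL compound; 2 h at 37 °C, dark; add 5X beads (50 ug/mL); 1 h; read.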
D2 PAM: potentiates the human D2 dopamine receptor allosterically | P14416 | DiscoveRx D2 beta-arrestin cells, luminescence, 90 min; 100% = 57 uM dopamine signal | potentiation, % (concentration not given with the values) | 0.23% of 360,000 active; active = potentiation of 50% or more; inconclusive = 30% to 50%; inactive = 30% or less;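 note: compound concentration not given in the record; tested on top of an EC20 dose of dopamine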
Target sequence (P14416 whole entry, looked up): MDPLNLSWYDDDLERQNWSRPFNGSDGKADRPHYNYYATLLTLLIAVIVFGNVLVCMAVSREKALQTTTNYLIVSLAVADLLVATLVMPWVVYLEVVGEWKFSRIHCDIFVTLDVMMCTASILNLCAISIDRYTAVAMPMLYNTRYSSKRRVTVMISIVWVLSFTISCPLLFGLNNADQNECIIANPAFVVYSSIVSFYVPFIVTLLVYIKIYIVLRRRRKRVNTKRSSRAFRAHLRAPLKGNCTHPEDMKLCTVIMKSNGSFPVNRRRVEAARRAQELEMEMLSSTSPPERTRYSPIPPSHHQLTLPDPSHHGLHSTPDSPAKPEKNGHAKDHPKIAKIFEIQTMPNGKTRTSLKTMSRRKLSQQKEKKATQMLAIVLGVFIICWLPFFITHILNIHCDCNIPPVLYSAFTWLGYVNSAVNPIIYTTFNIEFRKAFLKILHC
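D2 cells co-treated with compound plus 50 nM dopamine (EC20) for 90 min at 37 deg C to detect potentiation. Beta-arrestin recruitment was read as enzyme-fragment luminescence after 1 h at ambient temperature. Full response was set by 57 uM dopamine.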
D2 ag: agonists of human D2 dopamine receptor (beta-arrestin); AID 624465; activation, % (no concentration beside the values); 0.084% of 360,000 active; P14416; DiscoveRx PathHunter D2 beta-arrestin, luminescence, 90 min; 100% = 57 uM dopamine signal; in the data active = activation above about 40%; inconclusive = about 15% to 40%; inactive = below about 15%; note: compound concentration not given in the record; the text of the record calls up to 30% inactive
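DiscoveRx PathHunter D2 beta-arrestin cells (2,100/well) attached overnight, then compound-stimulated 90 min at 37 C in HBSS/10 mM HEPES/0.1% Tween-20 buffer; beta-galactosidase complementation read by luminescence after 1 h at ambient temperature. Dopamine 57 uM final (EC100) as control.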
Sfp PPTase inh: blocks B. subtilis Sfp PPTase activity. Biochemical Sfp PPTase activity, qHTS. Potency, µM, for inactives: max response, negative = inhibition, usual class: inhibitors. 3.5% of 310,000 active; active = well fitted inhibition curve with a large enough effect; inconclusive = small, poorly fitted or top-dose-only effect, or another doubt; inactive = no such curve, though single readings can be large or run the other way;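 note: the enzyme is Sfp with the accession as filed and its product quenches rhodamine fluorescence; potency is the fitted concentration of half-maximal effect; 0% = enzyme reaction without inhibitor and -100% = no enzyme wells; top concentration of the series not given in the record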
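Reaction rates are the 30-min fluorescence difference (ex 525, em 598 nm) in wells containing 15 nM Sfp, 5 uM rhodamine-CoA and 12.5 uM BHQ-2-YbbR at pH 7.6 with 10 mM MgCl2.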
Active calls of the source: *; ? = inconclusive; . = not tested or not shown; [ ] = remark or other dose. Rows are unselected; any-hit rate near 3.7%.

No.	molecule	Six1-Eya2 inh	TRPV1 PAM	PINK1 expr mod	CtBP-E1A inh	D2 PAM	D2 ag	Sfp PPTase inh
1	Cc1cc(C(=O)N/N=C/c2cc([N+](=O)[O-])cc(C)c2O)n[nH]1	-77*	-2	0.0%	-88*	-7	-9.9	6%
2	Cc1cn2nc(N)c3ccccc3c2n1	-3	8	-0.8%	-5	-1	-2.6	7%
3	CCC(CC)C(=O)Nc1c(C)n(C)n(-c2ccccc2)c1=O	6	-5	-1.4%	-1	-4	-0.4	6%
4	COc1cccc(N2CCN(Cc3nc(N)nc(Nc4ccccc4)n3)CC2)c1	-18	14	4.1%	-12	6	1.7	3%
5	CC(C)(C)c1csc(NC(=O)c2ccc(Br)o2)n1	0	-17	17%	4	-12	0.0	-10%
6	Cc1cc(C)n2cc(CSCc3ccco3)nc2n1	-1	8	0.0%	-1	-4	-1.3	-21%
7	CCCNC(=O)CCNC(=O)[C@H](O)C(C)(C)CO	2	.	-0.5%	6	.	0.6	.
8	O=C(O)COc1ccccc1/C=N/NC(=O)CN1CCN(Cc2ccccc2Cl)CC1	-1	4	-0.7%	-4	-7	-0.7	7%
9	COC(=O)Cn1ncn2c(cc3oc(C)cc32)c1=O	-10	0	-0.2%	-1	-13	0.5	56µM*
10	Cc1cccc(NS(=O)(=O)c2ccc(-c3cnc(C4CC4)o3)cc2)c1C	1	4	-1.2%	.	-9	4.5	4%
11	Cc1cc(C)n(-c2ccc(NC(=O)C3CCCCN3C(=O)c3occc3C)cc2)n1 (centres undefined)	13	11	2.7%	10	5	-0.5	4%
12	Cc1ccc(S(=O)(=O)c2nc(-c3ccccc3Br)oc2N(C)C)cc1	-14	.	1.6%	1	-5	-1.2	.
13	O=C(NCCO)c1ccc2nc(-c3ccco3)c(-c3ccco3)nc2c1	?	2	1.4%	5	15	11	10µM*
14	CCOc1ccc(OCc2ccc(C(=O)N3CCCC3)o2)cc1	7	?	1.8%[38.3 µM]	59	-9	4.0	-19%
15	CC1CCCCC1NC(=O)/C(C#N)=C/c1ccc(OCC(N)=O)cc1 (centres undefined)	6	-14	?	10	-8	-4.8	0%
16	COC(=O)c1ccc(/C=C/C(=O)OCC(=O)Nc2cc(C)on2)cc1	-5	.	1.6%	4	-4	-0.1	.
17	Cc1nn(-c2ncc(C(F)(F)F)cc2Cl)c(=O)n1-c1c(F)cccc1F	1	15	1.3%	.	-1	-1.2	16%
18	CCC(=O)Nc1ccc2nc(SCC(=O)N3CCCC3)sc2c1	0	5	7.7%[38.3 µM]	1	2	-1.4	23%
19	CCNc1nc(NC(C)C)nc(OCCOC(=O)Nc2ccccc2)n1	1	13	1.8%[38.3 µM]	9	-7	0.2	6%
20	COc1ccc(-c2cccc(NS(=O)(=O)c3ccccc3[N+](=O)[O-])c2)nn1	-11	12	-3.7%	5	-67	0.7	.
21	CC(=O)Nc1cc(NC(C)=O)cc(C(=O)OCC(=O)c2ccc3c(c2)OCO3)c1	15	-4	4.4%	3	-33	-6.0	.
22	COc1cc(/C=C2\NC(=S)NC2=O)ccc1OCc1cccc(C(=O)O)c1	0	-8	-0.5%	-6	1	-4.3	-21%
23	CC(=O)NCCCC(=O)NC(CCC(=O)OCc1ccccc1)C(=O)OCc1ccccc1 (centres undefined)	3	-13	-1.2%	-1	-1	1.8	12%
24	COc1cc(C(=O)Oc2cccc(C)c2)cc(OC)c1OC	0	-12	9.2%	8	-13	-1.5	6%
25	Cc1cc(Nc2ccccc2)nc2cc(O)ccc12	8	2	-0.3%	6	-10	-0.5	-16%
26	COc1ccc(S(=O)(=O)Nc2ccc3c(c2)OCO3)cc1C	-4	9	-1.9%[38.3 µM]	9	3	-1.7	19%
27	COc1ccc(-c2n[nH]c(C)c2-c2ccc(OC)c(OC)c2)c(O)c1	-24	-4	-0.3%	?	-8	-2.9	2%
28	CN(CCC#N)C(=O)CSc1nc2scc(-c3ccccc3)c2c(=O)[nH]1	-7	23	1.4%	-6	-20	-3.4	-10%
29	O=C(NCc1ccccc1)[C@]1(C(F)(F)F)C[C@H](CCc2ccccc2)CCCO1	11	.	-0.1%	3	-8	-2.2	6%
30	O=C(CNC(=O)c1ccco1)Nc1ccc2c(c1)OCCO2	13	-1	4.7%	-5	-1	-0.9	.
31	Nc1ccccc1C(=O)Nc1cccc2ccccc12	2	9	0.8%	0	2	-4.9	14%
32	CCN(CC)CCCNC(=S)N1CCN(c2nc(-c3ccc(F)cc3)cs2)CC1	-10	-10	-1.5%	0	-16	-3.9	-5%
33	O=[N+]([O-])c1ccc(S(=O)(=O)N2CCC3(CC2)OCCN3S(=O)(=O)c2cccs2)cc1	-13	0	-1.1%	-3	72*	14	.
34	COc1ccc(C)cc1-n1nnnc1SCC(=O)NNC(=O)c1ccc([N+](=O)[O-])cc1	2	-9	-1.1%	-2	-12	-1.5	19%
35	CC(C(=O)O)N1C(=O)C2C3CC(C2C1=O)C1C(c2ccccc2)c2sc(=O)[nH]c2SC31 (centres undefined)	-4	-26	-0.8%	3	-2	3.7	-15%
36	CC12CCC(C(=O)N(CCCCN3CCN(c4ccccn4)CC3)C1=O)C2(C)C (centres undefined)	-8	7	0.4%	.	57*	73*	19%
37	COc1ccc(CNC(=O)c2ccc(-c3ccccc3)cc2)cc1	8	11	2.2%	4	6	-1.5	0%
38	COc1cc(/C=C/C(=O)O)cc(S(=O)(=O)Nc2ccc3nc(SC)sc3c2)c1OC	-2	9	0.9%	-1	-4	1.9	0%
39	C[C@@H]1CCCCO[C@@H](CN(C)Cc2ccc(Cl)c(Cl)c2)[C@@H](C)CN([C@H](C)CO)C(=O)c2cc(NC(=O)Nc3ccccc3)ccc2O1	-20	.	0.2%	-12	11	13	.
40	C#CC(C)(C)NC(=O)c1ccc(-c2ccccc2F)cc1	5	-20	2.3%	-3	0	-6.2	16%
41	COc1ccc2[nH]c3c(c2c1)CCNC3(C)CCc1ccc(Cl)nc1 (centres undefined)	-13	3	1.5%	.	-15	1.2	10%
42	O=C(NCCCNC(=O)c1ccc(Cl)cc1Cl)c1cnccn1	2	7	-1.9%	3	0	7.1	12%
43	Cn1nnnc1P(=O)(c1ccccc1)c1ccccc1	7	0	?	11	-11	-3.0	3%
44	CC(=O)N1CCC(C(=O)Nc2ccc(S(=O)(=O)N3CCCCC3)cc2)CC1	2	-11	0.1%	1	-11	0.0	-4%
45	Cc1cccc(-n2ncc3c(NCc4cccs4)ncnc32)c1	-1	5	10%[38.3 µM]	25	-9	1.5	9%
46	CC1CC(C)CN(C(=O)CSc2ccsc2[N+](=O)[O-])C1 (centres undefined)	1	-46	-0.8%	.	-3	-1.6	2%
47	CNC(=S)NCc1ccc2[nH]c3c(c2c1)CCCC3	-11	-18	1.4%	-3	-9	-2.9	?
48	Cc1ccc(/C=N/NC(=O)CNC(=O)c2cccs2)o1	0	5	0.6%	-18	-8	-4.1	1%

Reformatted: results already given
Values in the order: Six1-Eya2 inh, TRPV1 PAM, PINK1 expr mod, CtBP-E1A inh, D2 PAM, D2 ag, Sfp PPTase inh
1	Cc1cc(C(=O)N/N=C/c2cc([N+](=O)[O-])cc(C)c2O)n[nH]1
→ -77*, -2, 0.0%, -88*, -7, -9.9, 6%
2	Cc1cn2nc(N)c3ccccc3c2n1
→ -3, 8, -0.8%, -5, -1, -2.6, 7%
3	CCC(CC)C(=O)Nc1c(C)n(C)n(-c2ccccc2)c1=O
→ 6, -5, -1.4%, -1, -4, -0.4, 6%
4	COc1cccc(N2CCN(Cc3nc(N)nc(Nc4ccccc4)n3)CC2)c1
→ -18, 14, 4.1%, -12, 6, 1.7, 3%
5	CC(C)(C)c1csc(NC(=O)c2ccc(Br)o2)n1
→ 0, -17, 17%, 4, -12, 0.0, -10%
6	Cc1cc(C)n2cc(CSCc3ccco3)nc2n1
→ -1, 8, 0.0%, -1, -4, -1.3, -21%
7	CCCNC(=O)CCNC(=O)[C@H](O)C(C)(C)CO
→ 2, ., -0.5%, 6, ., 0.6, .
8	O=C(O)COc1ccccc1/C=N/NC(=O)CN1CCN(Cc2ccccc2Cl)CC1
→ -1, 4, -0.7%, -4, -7, -0.7, 7%
9	COC(=O)Cn1ncn2c(cc3oc(C)cc32)c1=O
→ -10, 0, -0.2%, -1, -13, 0.5, 56µM*
10	Cc1cccc(NS(=O)(=O)c2ccc(-c3cnc(C4CC4)o3)cc2)c1C
→ 1, 4, -1.2%, ., -9, 4.5, 4%

Next section
No.	molecule	Six1-Eya2 inh	TRPV1 PAM	PINK1 expr mod	CtBP-E1A inh	D2 PAM	D2 ag	Sfp PPTase inh
49	COc1ccccc1CNC(=O)CN1C(=O)NC2(CCCCCCC2)C1=O	3	.	2.4%	6	1	0.7	.
50	O=c1c(C/C=C/c2ccccc2)c(O)ccn1Cc1cccc(Cl)c1	-7	-1	-1.7%	-15	-29	-19	21%
51	CCCCNS(=O)(=O)c1ccc(OC)cc1	13	0	-0.1%	1	2	-3.8	10%
52	CC(C)(Cc1ccc(O)cc1)NC(=O)CC(=O)N/N=C/c1ccc([N+](=O)[O-])cc1	-21	12	-2.2%	-7	14	6.5	-7%
53	OC(c1ccc(Cl)c(Cl)c1)c1ncc(-c2ccccc2F)[nH]1 (centres undefined)	-4	.	26%	-8	-3	3.8	.
54	Cc1ccc2nc(NC(=O)COC(=O)c3ccc(Br)o3)sc2c1	-5	-8	-1.5%	-1	-26	-2.1	25µM*
55	O=C(Cc1ncc(C(F)(F)F)cc1Cl)NCc1cccnc1	4	1	-3.0%	6	0	1.4	7%
56	CCN1C(=O)[C@H]2[C@@H](c3ccc(OC)cc3)N[C@]3(CCCN(CC4CCCCC4)C3=O)[C@H]2C1=O	10	.	5.8%	7	-9	-7.1	.
